gsp ag: agonists of gsp mutant (McCune-Albright syndrome); gsp mutant cells, cAMP HTRF, 30 min; control for the full effect not named in the record; Potency, µM (titrated, usually from 76.9 µM), inactives show top-dose activation (cAMP increase), usual class: activators; actives 0.13% (n = 340,000); AID 624287; active = well fitted activation curve with a large enough effect; inconclusive = small, poorly fitted or top-dose-only effect, or another doubt; inactive = no such curve, though single readings can be large or run the other way; cell line not stated here;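 further: phosphodiesterase inhibitor Ro 20-1724 added with compounds to block cAMP breakdown; potency means the concentration at half of the fitted maximal effect; nearly all actives have a fitted effect of over 60% in size; about a fifth of the inactives were tested at one dose only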
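Cells in DMEM/10% FBS with G418 were pretreated with compounds in DMSO plus […] (300 uM stock) for 30 min at 37C. cAMP was measured by HTRF (cAMP-d2 plus anti-cAMP antibody-K) after 30 min at room temperature.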
CtBP-E1A inh: inhibitors of CtBP/E1A interaction | AlphaScreen GST-E1A/His-CtBP binding, 1536-well; hits give low values; control for the full effect not named in the record | activity change, % (no concentration beside the values) | actives 0.49% (n = 340,000) | AID 651724; in the data active means activity change below about -65%; inconclusive means about -30% to -65%; inactive means above about -30%; further: on the % scale 0 is the no-effect control and ±100 the full control effect; compound concentration not given in the record
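Steps: dispense buffer (Tris pH 8.0, NaCl 300 mM, TCEP 1 mM, BSA, Tween 20); add 5X protein mix (GST-E1A, His-CtBP, 125 nM each); pin 23 nL compound; 2 h at 37 °C, dark; add 5X beads (50 ug/mL); 1 h; read.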
D2 agonist: agonists of human D2 dopamine receptor (beta-arrestin); activation, % (no concentration beside the values); P14416; DiscoveRx PathHunter D2 beta-arrestin, luminescence, 90 min; 100% = 57 uM dopamine signal; actives 0.084% (n = 360,000); in the data active = activation above about 40%; inconclusive = about 15% to 40%; inactive = below about 15%; further: compound concentration not given in the record; the text of the record calls up to 30% inactive
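Agonist mode: compounds alone added to overnight-plated D2 PathHunter cells for 90 min at 37 C, with 57 uM final dopamine (EC100) defining full response. Beta-arrestin recruitment detected by chemiluminescent reagent, read after 1 h at ambient temperature.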
gsp antagonist: antagonists of gsp mutant (McCune-Albright syndrome); gsp-mutant cells, cAMP HTRF, 30 min; control for the full effect not named in the record; Potency, µM (top dose mostly 76.9 µM), without a hit: at the top dose activity change, negative = inhibition, usual class: inhibitors; actives 0.4% (n = 340,000); AID 624288; active = falling curve of any shape with a large fitted effect; inconclusive = falling curve, mostly with a smaller effect; inactive = flat or rising curve; cell line not stated here;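 further: intracellular cAMP measured with PDE inhibitor Ro 20-1724 present during compound exposure; potency means the concentration at half of the fitted maximal effect; on the % scale 0 is the no-effect control and ±100 the full control effect; nearly all actives have a fitted effect of over 65% in size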
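HTRF cAMP measurement after 30 min RT detection following 30 min, 37C compound treatment alongside […] (added as 300 uM solution) in G418-selected cells seeded at 2000/well and grown 16–24 h.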
D2 potentiator: human D2 receptor positive allosteric modulation; DiscoveRx D2 beta-arrestin cells, luminescence, 90 min; 100% = 57 uM dopamine signal; P14416; potentiation, % (no concentration beside the values); actives 0.23% (n = 360,000); AID 624464; active = potentiation of 50% or more; inconclusive = 30% to 50%; inactive = 30% or less;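 further: compound concentration not given in the record; tested on top of an EC20 dose of dopamine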
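D2 cells co-treated with compound plus 50 nM dopamine (EC20) for 90 min at 37 deg C to detect potentiation. Beta-arrestin recruitment was read as enzyme-fragment luminescence after 1 h at ambient temperature. Full response was set by 57 uM dopamine.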
Six1-Eya2 inh: blocks human Six1 binding to Eya2. Q15475+O00167. AlphaScreen GST-Six1/His-Eya2 binding, biochemical; hits give low values; control for the full effect not named in the record. activity change, % (test concentration not listed). actives 0.56% (n = 360,000); in the data active = activity change below about -65%; inconclusive = about -30% to -65%; inactive = above about -30%; further: on the % scale 0 is the no-effect control and ±100 the full control effect; compound concentration not given in the record
Target sequence (O00167 whole entry, looked up): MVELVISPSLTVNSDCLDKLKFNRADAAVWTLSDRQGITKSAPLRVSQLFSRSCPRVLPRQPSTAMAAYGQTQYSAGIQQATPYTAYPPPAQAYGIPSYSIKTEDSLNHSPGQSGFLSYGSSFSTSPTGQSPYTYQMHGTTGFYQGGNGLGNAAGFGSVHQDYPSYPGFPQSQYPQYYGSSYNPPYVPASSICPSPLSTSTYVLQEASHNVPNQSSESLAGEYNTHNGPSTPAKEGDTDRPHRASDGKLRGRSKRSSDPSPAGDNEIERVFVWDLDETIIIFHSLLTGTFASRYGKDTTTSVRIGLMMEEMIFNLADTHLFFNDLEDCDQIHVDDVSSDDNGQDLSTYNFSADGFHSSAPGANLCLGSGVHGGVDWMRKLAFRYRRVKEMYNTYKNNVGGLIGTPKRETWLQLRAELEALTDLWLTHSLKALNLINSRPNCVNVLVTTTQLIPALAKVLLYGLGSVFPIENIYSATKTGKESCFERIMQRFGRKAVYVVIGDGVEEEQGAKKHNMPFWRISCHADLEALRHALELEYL
Target sequence (Q15475 whole entry, looked up): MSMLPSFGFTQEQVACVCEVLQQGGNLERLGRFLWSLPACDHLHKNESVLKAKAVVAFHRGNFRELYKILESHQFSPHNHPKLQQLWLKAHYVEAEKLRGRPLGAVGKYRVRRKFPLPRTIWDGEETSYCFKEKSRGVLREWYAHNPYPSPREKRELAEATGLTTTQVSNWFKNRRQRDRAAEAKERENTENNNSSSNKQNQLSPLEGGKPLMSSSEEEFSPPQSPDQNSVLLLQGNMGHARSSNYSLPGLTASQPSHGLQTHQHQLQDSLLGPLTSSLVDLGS
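GST-Six1 + His-Eya2 (5X stock: 250/500 nM); Tris pH 8.0, 300 mM NaCl, 0.05% BSA, 0.02% Tween 20; GSH donor/Ni acceptor beads; 1 h 37 °C dark; AlphaScreen readout.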
The depositor's hits bear a star; ? = inconclusive; · = not tested or not shown; [ ] = another dose, or the depositor's remark.

The opening 4 entries (preview)
SMILES	gsp ag	CtBP-E1A inh	D2 agonist	gsp antagonist	D2 potentiator	Six1-Eya2 inh
COc1ccc(Br)cc1CN(C)C(=O)Cc1ccc(OC)c(S(=O)(=O)N2CCOCC2)c1	-68%[inhibitor]	·	-1.0	-5%	-2	2
CN(C)c1ccc(-c2ccnc3c2CC(C)(C(=O)NCCC(F)(F)F)O3)cc1 (configuration not stated)	·	-21	-2.4	·	-10	?
COc1ccc(CCN(C)C2CCCN(S(=O)(=O)N(C)C)C2)cc1OC (configuration not stated)	9%	7	-2.4	3%	-1	-4
COC(=O)CSc1ccc2nnc(-c3ccc(OC)c(OC)c3)n2n1	?	-4	-1.2	12%	-1	-5

The whole of this part, from the start:
SMILES	gsp ag	CtBP-E1A inh	D2 agonist	gsp antagonist	D2 potentiator	Six1-Eya2 inh
COc1ccc(Br)cc1CN(C)C(=O)Cc1ccc(OC)c(S(=O)(=O)N2CCOCC2)c1	-68%[inhibitor]	·	-1.0	-5%	-2	2
CN(C)c1ccc(-c2ccnc3c2CC(C)(C(=O)NCCC(F)(F)F)O3)cc1 (configuration not stated)	·	-21	-2.4	·	-10	?
COc1ccc(CCN(C)C2CCCN(S(=O)(=O)N(C)C)C2)cc1OC (configuration not stated)	9%	7	-2.4	3%	-1	-4
COC(=O)CSc1ccc2nnc(-c3ccc(OC)c(OC)c3)n2n1	?	-4	-1.2	12%	-1	-5
Cc1cc(N)n(-c2ccccn2)n1	4%[15.4 µM]	6	-4.9	9%	-7	10
COc1ccc(S(=O)(=O)N2CCN(C(=O)COc3ccc(C)c(C)c3)CC2)cc1OC	-31%[inhibitor]	-5	2.0	-11%	5	-1
Cc1nn(C)cc1S(=O)(=O)N1CCN(c2cccc(Cl)c2)CC1	10%[15.4 µM]	11	-1.4	2%	-21	3
Cc1cscn1	·	0	-3.1	11%	4	0
COc1ccccc1-c1cc(C(F)(F)F)nc(S(=O)(=O)CCCC(=O)N2CCCCC2C)n1 (configuration not stated)	-21%	1	-7.8	23%	-22	-2
Cc1ccc(N2CCN(C(=O)C3CCC(=O)N(Cc4ccc(Cl)cc4)C3)CC2)c(C)c1 (configuration not stated)	20%	-3	-1.0	-17%	-5	0
Cc1cc(Br)cn2c(Cc3cccc(F)c3)c(C3CCCCC3)nc12	·	8	-3.4	·	-5	9
CCc1ccc(OCC(=O)N(C)CCC#N)c(Br)c1	4%	6	-2.6	8%	2	4
COc1ccccc1NC(=S)Nc1cccc(F)c1	-40%[inhibitor]	5	-3.3	8%	-11	-2
Cc1cc(C)c(S(=O)(=O)N2CCOC23CCN(S(C)(=O)=O)CC3)c(C)c1	-51%[inhibitor]	5	1.1	·	-1	-4
O=C(NC1CCCC1)C(c1ccncc1)N(Cc1ccccc1)C(=O)Cc1cccs1 (configuration not stated)	-5%	-4	-2.4	-4%	-5	3
Nc1ccccc1C(=O)NCc1ccc(Cl)cc1	17%[15.4 µM]	-3	1.6	4%	8	9
COc1ccc(CNC(=O)C2CCN(S(=O)(=O)c3c(C)noc3/C=C/N(C)C)CC2)cc1	2%	0	3.3	-10%	-11	-3
CCOc1ccc(/C=N/NC(=O)Cc2csc(Nc3cccc(C(F)(F)F)c3)n2)cc1	18%	-3	2.1	-20%	1	-11
Cc1csc(NC(=O)C2=COCCO2)n1	?	-14	-2.0	10%	4	5
Nc1ccc(C(=O)N2CCN(S(=O)(=O)c3ccc(Br)cc3)CC2)cc1[N+](=O)[O-]	-43%[inhibitor]	-1	0.8	0%	16	-15
CCOc1ccccc1N1CC(C(=O)Nc2ccc3c(c2)OCCO3)CC1=O (configuration not stated)	8%[15.4 µM]	8	0.5	-3%	-5	12
COCCNC(=O)c1ccc2c(c1)NC(=O)CS2	4%	6	-2.9	3%	0	0
COC(CN(C)C(=O)c1cn(C)c2ccc(S(=O)(=O)N(C)C3CCCCC3)cc2c1=O)OC	-26%	·	1.2	-3%	-6	-1
COc1ccc(/C=C2\SC(=O)N(CCNC(=O)CCS(=O)(=O)c3ccc(C)cc3)C2=O)cc1	21%	0	2.7	-24%	-2	1
CCOc1ccc(C(Nc2cccnc2)c2cc(Cl)c3cccnc3c2O)cc1 (configuration not stated)	-3%[15.4 µM]	-68*	-11	4%	-7	?
COc1cc(NCCCNC(C)C)c2nccc(C)c2c1	-24%	-30	5.5	-11%	-11	-22
Cc1ccccc1-c1cc2nc(NCc3ccccc3F)n(C)c(=O)c2s1	·	-5	-5.8	·	-7	0
CC(=O)c1cccc(NC(=O)COC(=O)c2ccc3c(c2)OCCO3)c1	13%[15.4 µM]	-2	-0.6	-16%	-15	5
O=C(c1ccncc1)N1CCN(C(=O)c2ccco2)CC1	7%	0	0.5	12%	-2	4
CCOC(=O)c1c2c3c(c(Cl)ccc3[nH]c1=O)C(=O)c1ccccc1-2	6%	-89*	-0.7	-16%	10	-76*
COc1cc(/C=N/NC(=O)CNC(=O)c2ccncc2)ccc1OC(C)=O	13%	-3	-3.1	-6%	-9	-7
c1ccc(OCCCc2nc(-c3ccccn3)no2)cc1	5%	2	2.7	1%	-5	9
O=C(CN1C(=O)C2C3CC(C(Br)C3Br)C2C1=O)N1CCN(Cc2ccccc2)CC1 (configuration not stated)	1%[15.4 µM]	7	-1.7	25%	-8	12
Cc1nonc1NC(=O)CSc1ccc(-c2ccccc2)nn1	12%	1	-4.4	-27%	-6	-3
CCCNC(=O)C1(CC2CC(c3ccccc3)=NO2)CCN(C(=O)OC(C)(C)C)CC1 (configuration not stated)	-10%	6	-0.6	-14%	-24	-5
O=CNc1ccccc1Oc1ccccc1	-10%	2	-4.9	2%	-7	7

Ordered by the number under D2 potentiator (rising): three of the compounds above
Compound	gsp ag	CtBP-E1A inh	D2 agonist	D2 potentiator	Six1-Eya2 inh
CC(=O)c1cccc(NC(=O)COC(=O)c2ccc3c(c2)OCCO3)c1	13%[15.4 µM]	-2	-0.6	-15	5
O=CNc1ccccc1Oc1ccccc1	-10%	2	-4.9	-7	7
Cc1nonc1NC(=O)CSc1ccc(-c2ccccc2)nn1	12%	1	-4.4	-6	-3

The results go on.
SMILES	gsp ag	CtBP-E1A inh	D2 agonist	gsp antagonist	D2 potentiator	Six1-Eya2 inh
O=[N+]([O-])c1ccc(CSc2ccc(S(=O)(=O)N3CCOCC3)cn2)cc1	9%[15.4 µM]	-3	3.6	10%	0	-21
COc1cc(NC(=S)N2CCCCC2C)c(OC)cc1Cl (configuration not stated)	-10%	·	0.4	5%	-12	11
N#Cc1c(N)nc(SCC(=O)C23CC4CC(CC(C4)C2)C3)c(C#N)c1-c1ccc(Cl)cc1	?	6	-2.8	29%	27	8
CC(=O)NNC(=S)NC(=O)c1ccc(C)cc1	7%[15.4 µM]	-1	-6.5	4%	-13	6
COCCNC(=O)C1(C)CCN(C(=O)c2ccc(OC)c(F)c2)C1 (configuration not stated)	·	6	-2.4	·	4	1
CCC(Oc1ccc(Br)cc1Cl)C(=O)Nc1nnc(C2CC2)s1 (configuration not stated)	-30%	-3	-9.1	0%	3	0
CCCn1cnc2c(oc3ccccc32)c1=O	-8%[15.4 µM]	5	-3.0	13%	-3	-7
COC(=O)c1ccc(CS(=O)(=O)c2ccc(F)cc2)o1	-8%	·	-7.0	14%	0	21
Cc1cc(C)c(C)c(S(=O)(=O)NCc2ccncc2)c1C	6%	-1	-1.4	-3%	-6	1
OC[C@@H](O)C1OC2NC(=S)OC2C1O (some centres not stated)	20%	12	-0.3	7%	-4	-1
CCOC(=O)[C@@H]1[C@H]2COc3ccccc3[C@@H]2N2C(=O)N(c3ccc(OC)cc3)C(=O)[C@]12C	?	4	-1.8	4%	-4	-3
CCc1ccc(NC(=O)c2ccc3c(=O)n4c(nc3c2)CCCCC4)cc1	9%	-23	4.5	?	-10	-10
O=C(O)c1cc(NC(=O)c2ccc([N+](=O)[O-])cc2)cc(NC(=O)c2ccc([N+](=O)[O-])cc2)c1	12%	-7	2.4	9%	12	-11
CC(=O)c1sc(-c2ccc(F)cc2)cc1NS(=O)(=O)c1ccccc1	-26%	4	-0.7	-7%	0	1
CN(C)S(=O)(=O)c1cccc(C(=O)NC2CCSc3ccccc32)c1 (configuration not stated)	6%	3	4.1	5%	-8	0
Cc1[nH]nc2c1/C(=N\O)CC(C)(C)C2	6%	19	-3.0	8%	-6	0
O=C(NCc1ccccn1)c1nc(-c2cccs2)no1	?	2	-0.1	5%	-2	3
COc1ccc(Cl)cc1-c1nc(SCC(=O)NCC2CCCO2)n[nH]1 (configuration not stated)	-29%	-14	-0.2	1%	0	-2
CNC(=S)N(Cc1cccs1)Cc1cc2ccc(OC)cc2[nH]c1=O	?	-5	0.3	-15%	-12	-6
COCC1CCN(C(=O)C2CCC(=O)N(CCc3cccc(F)c3)C2)CC1 (configuration not stated)	-25%	4	1.8	5%	8	6
c1ccc(-c2nnc(SCc3cn4ccsc4n3)o2)cc1	7%	-1	2.4	19%	-8	1
COc1ccc(CCNC(=O)/C=C/c2ccc(S(=O)(=O)N3CCOCC3)cc2)cc1	-58%[inhibitor]	-2	4.6	11%	0	5
CCN1C(=O)C(O)(C2COC(C)(C)CC2=O)c2cc(Br)ccc21 (configuration not stated)	0%	-6	-9.8	14%	-45	-17
Cc1ccc(SCc2nc(N)nc(Nc3ccccc3C)n2)c(C)c1	-1%	·	5.7	-15%	-5	-14
COc1cccc(-c2ccc3c(c2)N(Cc2ccccc2OC)C(=O)C(C)S3)c1 (configuration not stated)	·	3	-4.5	·	-3	-6
COCc1c(C(=O)N2CCN(Cc3ccc4c(c3)OCO4)CC2)oc2ccccc12	-29%	-26	46*	-13%	16	-7
Cn1c(=O)c2c(nc(Br)n2Cc2ccccc2Cl)n(C)c1=O	?	1	-2.2	11%	-14	0
CCOc1ccc(C(=O)NC2CC3CCCC(C2)N3Cc2ccccc2)cc1 (configuration not stated)	-16%[15.4 µM]	7	-5.4	8%	-16	10
O=c1oc(-c2cccc(S(=O)(=O)N3CCOCC3)c2)nc2ccccc12	?	-1	0.1	-11%	-9	-5
CCOC(=O)N1CCN(C(=O)c2ccc(CN(c3ccc(C)c(C)c3)S(C)(=O)=O)cc2)CC1	13%	1	5.4	22µM*	29	-3
Cc1ccccc1NC(=O)c1ccc2c(c1)C(=O)N(CC(C)C)C2=O	-25%	7	7.0	17%	3	0
Cc1ccc(-c2nn(-c3ccc(F)cc3)cc2C(=O)NCC2CCCO2)cc1 (configuration not stated)	-5%[15.4 µM]	10	-3.2	?	-10	0
COc1ccc(-n2c3c(cc(C(=O)NCC(=O)c4ccccc4)c2=O)C(=O)CC(C)(C)C3)cc1	13%[15.4 µM]	-17	-6.2	6%	-34	9
COc1ccc(-c2nc3cnccn3c2Nc2ccc3c(c2)OCO3)cc1	-25%	-8	0.6	-24%	6	?
CCN(CC)CCCn1c2c(c(SCC(=O)Nc3ccccc3Cl)nc1=O)CCC2	10%	-4	-6.7	7%	-19	0
Cc1c(C(=O)Nc2ccc(Cl)cc2)c2ccccn2c1C(=O)c1ccc([N+](=O)[O-])cc1	5%	-2	0.0	8%	-4	-2

An unsorted share of the library; 1.4% or so of the library scored in one or more.
